CDC25B CDK2 inh: human CDC25B-CDK2/CyclinA binding inhibition; HTRF CDC25B-CDK2/CyclinA binding, anti-His/anti-Flag; stronger effect = higher value; AID 1259370; z-score (test concentration not listed); 94,000 tested, 0.72% active; P30305+P24941;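 further: score is relative to mean and SD of negative controls; strong numbers were not always called active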
HIV TAR-Tat: HIV-1 TAR-Tat binding disruption; z-score (concentration not given with the values); 100,000 tested, 0.6% active; AID 1259389; HIV-1 TAR RNA, Tat peptide displacement FRET; stronger effect = higher value;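 further: score is relative to mean and SD of negative controls; some compounds called inactive have numbers as strong as hits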
* hit, by the source's call; . = no result given.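 How the source made its calls: active means z-score from 3 up in half or more of its runs; inactive means the rest.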

SMILES	CDC25B CDK2 inh	HIV TAR-Tat
Cc1cccc(-c2nc(SCc3cc(=O)n4nc(C5CC5)sc4n3)n[nH]2)c1	.	0.4
CCOC(=O)c1oc2ccccc2c1CSc1ccccn1	-0.41	3.8
O=C(c1cnccn1)N1CCN(c2ccc(-c3noc(C4CCC4)n3)cc2)CC1	.	0.76
CCc1ccc(-n2nnc(-c3nc(-c4cccs4)no3)c2N)cc1	.	-0.61
CCOC(=O)c1noc2ncnc(NCCC3=CCCCC3)c12	.	-0.05
Cc1ccn2c(=O)c(Cc3nnc(SCC(=O)Nc4cccc(F)c4)n3C)c(C)nc2c1	-1.4	0.63
Cc1cccc(-n2nnc(-c3nc(-c4ccc(Br)cc4)no3)c2N)c1	.	-0.18
O=C(NC1CCCC1)c1cncc(NS(=O)(=O)c2ccc3c(c2)OCCO3)c1	.	1.5
COc1ccc(-c2nc(Cn3c(C)nc4onc(C)c4c3=O)c(C)o2)c(OC)c1	.	1.7
CCCCN1CC(c2nc3ccccc3n2CCC)CC1=O (configuration not stated)	-0.53	-0.24
O=C(CCS(=O)(=O)c1ccc2c(c1)NC(=O)CO2)Nc1ccc(F)c(Cl)c1	.	-0.18
CC1CCCCC1NC(=O)Cn1cc2c(n1)CCCCC2 (configuration not stated)	0.05	0.89
Cc1ccc(C(C)NC(=O)c2ccc3c(c2)OCCO3)cc1C (configuration not stated)	.	-0.1
O=C(CN1C(=O)/C(=C/c2ccccc2Cl)N=C1c1ccccc1)c1ccccc1	-0.72	.
COc1ccccc1/C=C/c1nn2c(C(C)(C)C)nnc2s1	-0.68	0.14
CCOC(=O)c1cc(S(=O)(=O)N(C)CC(=O)N2CCC(C)CC2)cn1C	.	0.11
O=[N+]([O-])/C=C/c1ccsc1	0.24	.
O=C(CSC1=Nc2ccccc2C2=NC(Cc3c[nH]c4ccccc34)C(=O)N12)NC1CCCCC1 (configuration not stated)	.	0.74
O=C(c1ccco1)N1CCN(C(=O)c2ccc(CS(=O)c3ccc(F)cc3)o2)CC1 (configuration not stated)	.	2.3
CCOC(=O)c1cccc(NS(=O)(=O)c2cc(Br)cc3c2N(C(C)=O)CC3)c1	-1.6	.
Cc1nc(-c2ccc(Cl)cc2)sc1CCNS(=O)(=O)CCc1ccccc1	.	-0.02
CN1C(=O)c2cccc3c(S(=O)(=O)Nc4ccc(C(=O)O)cc4)ccc1c23	-1	2
Cc1ccc(S(=O)(=O)N2CCSC2c2ccc(Br)cc2)cc1 (configuration not stated)	-2	2.6
COc1cc(OC)c(N(C)C(=O)c2sc3nc4n(c(=O)c3c2C)CCCCC4)cc1Cl	.	1.4
COc1ccc(Cn2cc(C(=O)c3ccc(OC)cc3)c(=O)c3cc(F)ccc32)cc1	-0.89	1.1
CCC(C(=O)Nc1ccc(F)cc1)n1nc(C)c2sc3ccccc3c2c1=O (configuration not stated)	-1.9	1.6
CN(C(=O)Cn1c(=O)n(CCCS(=O)(=O)C2CCCCC2)c(=O)c2ccccc21)c1ccccc1	-1.4	-0.24
COc1ccc(S(=O)(=O)N2CCC(C(=O)O)CC2)cc1C(=O)O	-0.95	0.43
COc1cccc(-c2nc(SCc3cccc(Br)c3)n3[nH]c(=O)cc3n2)c1	.	-0.42
CCCOc1ccc(C2Nc3ccccc3S(=O)(=O)N2Cc2ccccc2)cc1OCC (configuration not stated)	-0.97	.
COc1ccc(NC(=O)c2cc3nc(-c4ccco4)cc(C(F)(F)F)n3n2)cc1OC	-1.6	-0.82
COC1C=CC(CNC(=O)CCn2c(=O)oc3ccccc32)(OC)O1 (configuration not stated)	-0.93	.
COc1ccc(C2SCCN2S(=O)(=O)c2ccc(C)cc2)cc1Br (configuration not stated)	0.18	1.7
CCOC(=O)c1cnn2c(C)cc(-c3ccc(F)cc3)nc12	0.39	0.1
CC(=O)Nc1ccc(S(=O)(=O)N2CCCC2c2cc(C)no2)cc1 (configuration not stated)	.	2.1
COCCN=C1NS(=O)(=O)C(c2ccc(OC)cc2)=C1C	-0.81	0.5
CCOC(=O)c1cc(C(=O)OCC)c(C(F)(F)F)nc1/C=C/N(C)C	-1.6	.
COc1cc(OC)c(NS(=O)(=O)c2ccc3c(c2)N(C)CCO3)cc1Cl	.	1.6
O=S(=O)(Nc1cccc(-c2ccc(N3CCOCC3)nn2)c1)c1ccc(F)cc1F	.	0.88
CCN1CCN(S(=O)(=O)c2csc(C(N)=O)c2)CC1	.	1.2
CC(=O)/C(C=Nc1cc(C)c(O)c(Cl)c1)=C(\C)O	-2.2	.
C=C1CC[C@H]2C(=C)CC[C@H]3C(=C)C(=O)O[C@@H]3[C@@H]12	.	1.9
CCCc1cc(=O)n2nc(N3CCC(C(=O)NCCCN4CCN(C)CC4)CC3)sc2n1	-0.57	0.9
O=c1n(CCCN2CCN(c3cccc(Cl)c3)CC2)nc2ccccn12	-1.9	2
CCCCc1c(C)nc(N)[nH]c1=O	-0.19	-1.4
O=C1Nc2ccccc2/C1=C/c1cn[nH]c1-c1cccs1	-1.8	.
Cc1cc(-c2ccc(S(=O)(=O)N3CCN(c4cccc(Cl)c4)CC3)s2)on1	.	0.51
Cc1nc(C(F)(F)F)ccc1NC(=O)/C=C\C(=O)O	-1.7	.
O=C(C(=O)N1CCN(c2ccccc2)CC1)c1c[nH]c2ccccc12	-1.9	0.1
NC(=O)c1ccc2c(c1)C1C3CCC(C3)C1C(c1ccccc1)N2 (configuration not stated)	-1.2	0.34
COc1ccc(-c2nc(N3CCCCC3)nc3nn4c(C)cc(C)nc4c23)cc1	0.54	.
COc1cc(C2Oc3nc(SC)nnc3-c3ccccc3N2C(C)=O)cc(Cl)c1OC (configuration not stated)	-1.8	0.13
CCN(Cc1ccc(OC)cc1)S(=O)(=O)c1ccc(OC)c(-c2noc(C)n2)c1	-0.91	2.7
Cc1sc2ncnc(N3CCC(C(=O)O)CC3)c2c1C	.	5.2
Cc1nnc2sc(SCC(=O)Nc3ccc4c(c3)OCO4)nn2c1=O	.	1.9
Cn1c(Cc2nc(-c3cnccn3)no2)nnc1SCC(=O)Nc1cccc(C(F)(F)F)c1	-1.3	.
COC(=O)CSCc1n[nH]c(=O)c2ccccc12	-0.91	.
O=C(COc1ccccc1F)Nc1ccc(OCc2cc(=O)n3cc(Cl)ccc3n2)cc1	.	-1.1
CC(C)CCn1c(C2CC(=O)N(c3ccccc3F)C2)nc2ccccc21 (configuration not stated)	-0.8	0.01
CSc1ccc(C2CC(=O)Nc3n[nH]c(-c4ccccc4)c32)cc1 (configuration not stated)	0.1	1.8

Complete entries, quoted from the list:
COC1C=CC(CNC(=O)CCn2c(=O)oc3ccccc32)(OC)O1 (configuration not stated) as listed: CDC25B CDK2 inh = -0.93; HIV TAR-Tat = .
CCOC(=O)c1cccc(NS(=O)(=O)c2cc(Br)cc3c2N(C(C)=O)CC3)c1 as listed: CDC25B CDK2 inh = -1.6; HIV TAR-Tat = .
CCOC(=O)c1cnn2c(C)cc(-c3ccc(F)cc3)nc12 as listed: CDC25B CDK2 inh = 0.39; HIV TAR-Tat = 0.1

Additional records.
SMILES	CDC25B CDK2 inh	HIV TAR-Tat
Cc1ccc(N2C(=O)C3CCC(C)CC3C2=O)cc1 (configuration not stated)	-1.5	-0.35
COc1ccc(CN(C)Cc2cc(=O)c3cc(F)ccc3[nH]2)cc1	.	0.24
CC1(C)CC(=O)C2=C(C1)NC(=O)CC2c1cccc2ccccc12 (configuration not stated)	-1.3	1.1
C=CCn1c(-c2ccc(N)cc2)nc2ccccc21	-0.44	3.1
Cn1c(=O)n(C)c2cc(S(=O)(=O)c3ccc4c(c3)n(C)c(=O)n4C)ccc21	-1.6	0.95
Cc1cc(N2CCOCC2)nc2cc(O)ccc12	-1.1	.
COc1ccc(-c2nnc(SCc3cc(=O)n4c(C)csc4n3)n2C)cc1	.	1.4
CN1CCN(CC(=O)Nc2ccc(F)cc2F)CC1	-1.6	.
O=C(CCCCCn1c(=O)[nH]c2ccccc2c1=O)NC1CCCC1	.	-0.2
N#Cc1ccc(-c2cccc([N+](=O)[O-])c2)o1	-2.7	.
CCOc1cccc(C2C(C(=O)OC3CCCCC3)=C(C)NC3=C2C(=O)C(C(=O)OC)C(C)C3)c1 (configuration not stated)	0.31	0.61
Cc1nnc2c(N3CCN(c4ccccn4)CC3)nc3ccc(C(=O)c4ccccc4)cc3n12	0.31	0.25
Cc1ccc(Cl)cc1N1NC(=O)C(C)(C)C1=O	-1	0.47
C=CCOc1ccc(C2C(C(=O)OC)=C(C)NC3=C2C(=O)c2ccccc23)cc1OCC (configuration not stated)	-1.2	0.21
Cn1c(C(C#N)C(=O)c2ccccc2Br)nc2ccccc21 (configuration not stated)	-2.4	.
Cc1cccc2c3c(ccc12)C1=C(C(=O)C3=O)[C@@H](C)CO1	.	17*
COc1ccc(C(=O)n2c(=O)oc3ccc(C(C)(C)C)cc32)cc1	.	0.42
NC(=O)c1c(NC(=O)c2ccccc2)sc2c1CCCC2	-2.6	-0.68
O=c1[nH]nc(-c2ccc(F)cc2)c2c1Nc1nnnn1C2c1ccc(Br)cc1 (configuration not stated)	0.57	4.7
CN(CCNC(=O)C1c2ccccc2C(=O)N(C)C1c1cccs1)C1CCCCC1 (configuration not stated)	.	2.2
Cc1ccc(-c2nnc3ccc(SCC(=O)N4CCCC4)nn23)cc1	-0.39	.
COCCCn1cnc2scc(-c3ccc(Cl)cc3)c2c1=O	1.6	-0.29
CCc1ccc(S(=O)(=O)NCCc2csc3nc(-c4ccccc4C)nn23)cc1	.	-0.14
Cc1cc2c(=O)n(CC(=O)NCC(=O)N3CCCC3)cnc2s1	.	2.2
O=C(O)C1=CC(c2ccccc2F)n2ncnc2N1 (configuration not stated)	.	1.2
COc1ccc(Nc2cc(N3CCc4ccccc4C3)ncn2)cc1	-2.3	2
COc1cc2c(cc1OC)C(C)N(C(=O)c1cc3c(s1)-c1ccccc1S(=O)(=O)C3)CC2 (configuration not stated)	-0.63	0.14
O=C(NC(=S)Nc1ccccn1)c1ccccc1	-0.08	.
O=C(Nc1ccc(Cl)cc1)C(=O)c1cn(CC(=O)N2CCCC2)c2ccccc12	.	3.2
O=C(Cc1ccc(Cl)cc1)Nc1nnc2n1CCS2	.	0.44
Cc1c(C(=O)N2CCCCC2)sc2nc3n(c(=O)c12)CCCC3	.	1.1
O=C(c1nn2c(c1Cl)NC(c1ccco1)CC2C(F)(F)F)N1CCN(c2ccccc2)CC1 (configuration not stated)	1.9	-0.73
Nc1nc(-c2cccc([N+](=O)[O-])c2)cs1	0.74	.
COc1cc2c(cc1OC)-c1nnc(-c3ccc(Br)cc3)n1C(C)(C)C2	-1.4	0.34
Clc1ccccc1OCc1nn2c(-c3ccncc3)nnc2s1	0.4	2
O=C(c1ccc2c(c1)OCCO2)N1CCc2ccccc21	.	0.96
CCCOc1ccc(C2Nc3ccc4ncccc4c3C3=C2C(=O)CCC3)cc1 (configuration not stated)	-1.1	0.15
Cc1noc(C)c1S(=O)(=O)NCc1cccn1Cc1ccc(Cl)cc1	.	1.3
Clc1ccccc1-c1cccc2cnccc12	-1.4	0.64
Cc1cc2n(n1)CCC(=O)N2CCCC(=O)NCCCN1CCN(C2CCCCC2)CC1	.	1.8
Cc1cc(N2CCN(C)CC2)nc(N2CCN(C(=O)Nc3ccccc3)CC2)n1	.	1.1
CN1CCc2c(sc(-n3cccc3)c2CNC(=O)Nc2cccc3c2CCCC3)C1	.	-7.2
Cn1ccnc1SCc1nccn1Cc1ccc(Cl)cc1	-1.1	.
Cc1cc(-c2ccccc2)n(-c2ccc(Cl)cc2)n1	-0.29	.
O=C(NCCc1c[nH]c2ccccc12)c1noc2c1CCc1sccc1-2	.	-1
Cc1ccc(C(=O)N2CCC(C)CC2)cc1NC1=NC2CS(=O)(=O)CC2S1 (configuration not stated)	-1.1	3.7
Cc1nc(N2CCCC2)cc(N2CCN(S(=O)(=O)c3ccc4c(c3)OCCO4)CC2)n1	-0.83	-0.65
COc1cc(C(=O)NNC(=S)NC2CC3C=CC2C3)cc(OC)c1OC (configuration not stated)	-1.3	.
Cc1ccc(Cl)cc1NS(=O)(=O)c1cc(-c2ccc(=O)[nH]n2)ccc1C	-1.9	-0.52
CC(C)CN(CC(C)C)S(=O)(=O)c1csc(C(N)=O)c1	.	1.7
O=c1c(F)cn(C2CCCO2)c(=O)n1Cc1ccc(Cl)cc1 (configuration not stated)	-1	.
O=C1C=C(NCCN2CCOCC2)CC(c2ccccc2)C1 (configuration not stated)	0.01	0.96
Cc1nnsc1C(=O)Nc1c(C(=O)c2ccc(Br)cc2)oc2ccccc12	-1.2	0.73
COCC(C)NC(=O)COCc1cc(-c2cccs2)on1 (configuration not stated)	.	-0.28
NC(=S)NNc1ccc(S(N)(=O)=O)cc1	-3.7	.
CCc1c(C)nc2ncnn2c1N1CCN(c2cc(Cl)ccc2C)CC1	.	1.3
Cc1cc(C)c(NS(=O)(=O)c2ccc(-c3cnc(C)o3)cc2)c(C)c1	.	0.04
O=C(O)c1ccc(CNCCC2=CCCCC2)s1	-1.1	0.05
Cc1sc2c(c1C)CSC(C(=O)Nc1ccc(Cl)cc1)=C2	.	-3.5

Of the compounds above, these have a furan ring, fused or not.
SMILES	CDC25B CDK2 inh	HIV TAR-Tat
CCOC(=O)c1oc2ccccc2c1CSc1ccccn1	-0.41	3.8
O=C(c1ccco1)N1CCN(C(=O)c2ccc(CS(=O)c3ccc(F)cc3)o2)CC1 (configuration not stated)	.	2.3
COc1ccc(NC(=O)c2cc3nc(-c4ccco4)cc(C(F)(F)F)n3n2)cc1OC	-1.6	-0.82
N#Cc1ccc(-c2cccc([N+](=O)[O-])c2)o1	-2.7	.
O=C(c1nn2c(c1Cl)NC(c1ccco1)CC2C(F)(F)F)N1CCN(c2ccccc2)CC1 (configuration not stated)	1.9	-0.73
Cc1nnsc1C(=O)Nc1c(C(=O)c2ccc(Br)cc2)oc2ccccc12	-1.2	0.73

From PubChem
